Screening results as filed in PubChem.
Cruzain inh Det: inhibitors of Trypanosoma cruzi cruzain with detergent | P25779 | purified cruzain, Z-FR-AMC fluorescence, 0.01% Triton | Potency, µM, for the others: max response, negative = inhibition, hits mostly inhibitors | hit rate 0.43% among 200,000;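 further: plate controls were neutral wells for no effect and buffer without enzyme for full effect; nearly all actives have a fitted effect of over 40% in size; top concentration of the series not given in the record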
Target sequence (P25779 123-467 limits assumed): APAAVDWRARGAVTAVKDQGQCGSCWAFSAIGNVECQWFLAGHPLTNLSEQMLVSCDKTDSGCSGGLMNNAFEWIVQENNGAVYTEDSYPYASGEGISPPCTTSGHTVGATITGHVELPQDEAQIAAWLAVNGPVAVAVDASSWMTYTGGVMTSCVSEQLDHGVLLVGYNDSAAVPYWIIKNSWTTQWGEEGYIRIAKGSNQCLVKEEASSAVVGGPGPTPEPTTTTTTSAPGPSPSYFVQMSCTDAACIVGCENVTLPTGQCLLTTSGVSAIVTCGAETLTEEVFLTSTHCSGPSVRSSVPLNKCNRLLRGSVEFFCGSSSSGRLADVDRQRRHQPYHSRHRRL
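Cysteine protease activity tested under reducing, mildly acidic conditions (100 mM sodium acetate pH 5.5, 5 mM DTT) plus 0.01% Triton X-100. Cruzain 1.5 nM; substrate Z-FR-AMC 2 uM; 15 min compound preincubation at room temperature.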
SARS PLP yeast: blocks SARS-CoV papain-like protease in a yeast assay; S. cerevisiae expressing SARS-CoV PLpro, growth rescue; control for the full effect not named in the record; Potency, µM (top dose mostly 32.9 µM), inactives show at the highest dose activity, positive = growth rescue; hit rate 0.19% among 330,000; active means well fitted rising curve with a large enough effect; inconclusive means small, poorly fitted or top-dose-only effect; inactive means no such curve, though single readings can be large or run the other way; further: 0% is about no effect; nearly all actives have a fitted effect of over 55% in size; growth read by luminescence after 48 h
Cruzain noTriton: blocks cruzain activity in detergent-free assay; P25779; purified cruzain, Z-FR-AMC fluorescence, no detergent; Potency, µM, inactives show max response, negative = inhibition, actives largely listed as inhibitors; hit rate 2.3% among 200,000;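 further: plate controls were enzyme without inhibitor for no effect and buffer without enzyme for full effect; nearly all actives have a fitted effect of over 40% in size; top concentration of the series not given in the record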
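Detergent-free condition (0.00005% Triton X-100) in acetate buffer pH 5.5 with DTT. 1.5 nM enzyme and compound were pre-mixed 15 min, then 2 uM Z-FR-AMC substrate added; reaction progress from fluorescence change between first and third reads (60 s).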
MARV entry inh: inhibitors of Marburg virus binding or cell entry; Marburg virus pseudotyped entry inhibition, cell reporter; control for the full effect not named in the record; about a third of the inactives were read at about 46 µM; Potency, µM (highest dose often 37.8 µM), without a hit: at the top dose activity change, negative = inhibition, actives largely listed as inhibitors; hit rate 1.8% among 300,000; AID 540276; active = well fitted inhibition curve with a large enough effect; inconclusive = small, poorly fitted or top-dose-only effect, or effect the other way; inactive = flat fitted curve, though single readings scatter; tested in HEK293 cells; about a fifth of its hits are not listed in these tables; further: on the % scale 0 is the no-effect control and ±100 the full control effect; luciferase read-out
LASV entry inh: Lassa virus entry inhibition; Lassa virus pseudotype entry inhibition, cell reporter; control for the full effect not named in the record; hit rate 1.2% among 300,000; Potency, µM (highest dose often 37.9 µM), without a hit: at the top dose activity change, negative = inhibition, actives largely listed as inhibitors; AID 540256; active means well fitted inhibition curve with a large enough effect; inconclusive means small, poorly fitted or top-dose-only effect, or effect the other way; inactive means flat fitted curve, though single readings scatter; tested in HEK293 cells; further: on the % scale 0 is the no-effect control and ±100 the full control effect; nearly all actives have a fitted effect of over 50% in size; luciferase read-out
NS1 inh: inhibitors of influenza NS1 protein function; S. cerevisiae slowed by influenza A NS1, growth recovery by OD600; Potency, µM (series often up to 46.1 µM), without a hit: top-dose activity, positive = more growth; hit rate 0.4% among 270,000; AID 2326; active means well fitted rising curve with a large enough effect; inconclusive means small, poorly fitted or top-dose-only effect; inactive means no such curve, though single readings can be large or run the other way; further: nearly all actives have a fitted effect of over 50% in size
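Read-out: OD600 growth recovery of NS1-expressing budding yeast. Cells grown overnight at 30C in -URA glucose medium, washed, resuspended and diluted 1:100 in 2% galactose assay medium, pH 6.0. Same strain lacking NS1 served as positive control.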
RE007 growth inh: less growth of the S. pombe RE007 Vpr strain. Potency, µM (doses to about 92.2 µM), for the others: at the highest dose activity change, negative = less growth. AID 651644. S. pombe RE007 Vpr strain, BacTiter-Glo ATP luminescence, 24 h; control for the full effect not named in the record. hit rate 0.21% among 360,000; active = well fitted falling curve with a large enough effect; inconclusive = small, poorly fitted or top-dose-only effect; inactive = no such curve, though single readings can be large or run the other way;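 further: on the % scale 0 is the no-effect control and ±100 the full control effect; nearly all actives have a fitted effect of over 50% in size; the assay follows cell death caused by Vpr and the record does not say whether a fall means rescue or toxicity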
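Fission yeast strain RE007, carrying one chromosomally integrated HIV-1 vpr copy, was seeded at OD 0.01 in PMG+AL medium with 23 nL pinned compound. After 24 h at 30 °C and 99% humidity, viability was read by BacTiter-Glo luminescence.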
2A StopGo: FMDV 2A StopGo reporter, luciferase signal; human cells with a luciferase reporter of 2A StopGo recoding; control for the full effect not named in the record; Potency, µM (doses to about 57.9 µM), for inactives: at the highest dose signal change, negative = less light; hit rate 1.2% among 410,000; AID 1159524; active = well fitted falling curve with a large enough effect; inconclusive = small, poorly fitted or top-dose-only effect; inactive = no such curve, though single readings can be large or run the other way; tested in HEK293T cells; further: on the % scale 0 is the no-effect control and ±100 the full control effect; nearly all actives have a fitted effect of over 45% in size; luciferase light after 4 h
Starred values were filed as active, the others as inactive; ? = inconclusive; . = not tested or not shown; & = joins results of further samples; [ ] = dose if it differs, or a comment. Unless noted, the call rests on the fitted dose curve; in most records, active means well fitted curve in the direction sought with a large enough effect; inconclusive means small, poorly fitted or top-dose-only effect, or another doubt; inactive means no such curve, though single readings can be large; an effect the other way counts as inactive or inconclusive. Potency means the concentration at half of the fitted maximal effect.

| Molecule | Cruzain inh Det | SARS PLP yeast | Cruzain noTriton | MARV entry inh | LASV entry inh | NS1 inh | RE007 growth inh | 2A StopGo |
| --- | --- | --- | --- | --- | --- | --- | --- | --- |
| CC(C)(C)OCC(NC(=O)C(CC(N)=O)NC(=O)OC(C)(C)C)C(=O)OC(C)(C)C (stereo not given) | 5.3% | -3% | ? | 3% | -13% | 7% | 4% | 7% |
| CCOc1ccc(NC(=O)Nc2ccccc2SC)cc1 | . | -1% | . | . | ? | -6% | -7% | 7% |
| Cc1cc(C)c(NC(=O)C2CCN(S(=O)(=O)c3c(C)noc3/C=C/c3ccccc3F)CC2)c(C)c1 | -1.1% | . | 6% | . | 11%[46.1 µM] | . | . | -6% |
| CCc1[nH]nc2c1C(c1ccc(C)o1)C(C#N)=C(N)O2 (stereo not given) | . | 0% | . | ? | 4% | 4% | 2% | -15% |
| COc1ccc(NC(=O)NC23CC4(C)CC(C)(CC(C)(C4)C2)C3)cc1OC | -5.9% | -18% | ? | ? | ? | 3% | -7% | ? |
| COc1ccc(NC(=O)c2nnn(CC(=O)Nc3ccc4c(c3)OCO4)c2N)cc1OC | . | -2% | . | 5%[46.1 µM] | -9%[46.1 µM] | 1% | 2% | 17% |
| COc1ccc(NC(=O)CS(=O)CC(=O)NC2CCCc3ccccc32)cc1 (stereo not given) | 2.8% | 4% | -4% | -2% | -2% | -2% | 10% | 17% |
| Cc1ccc(S(=O)(=O)N2CCc3cc(C(=O)NCCc4ccccc4)ccc32)cc1 | -0.4% | . | 2% | ? | -23%[46.1 µM] | . | . | -7% |
| O=C(N/N=C/c1cc2c(c([N+](=O)[O-])c1)OCO2)c1ccncc1 | . | 1% | . | -23% | ? | -1% | 8% | -14% |
| Nn1cnnc1SCC(=O)N(C1CCCCC1)C1CCCCC1 | . | 0% | . | ? | 2% | 4% | 2% | 12% |
| COc1cc(S(=O)(=O)N2CCN(c3ccc(F)cc3)CC2)ccc1Cl | -2.5% | -6% | -9% | 0%&0% | -23% | -51% | 7% | -24% |
| O=C(Nc1nccs1)Oc1ccccc1 | 1.4% | 1% | 8% | 5% | 2% | 4% | 3% | -12% |
| CC(C)Sc1nnc(NC(=O)CCc2ccccc2)s1 | . | 2% | . | 12%[46.1 µM] | -1%[46.1 µM] | . | -7% | 4% |
| CC(NC(=O)C1CCCC1)C1CC2CCC1C2 (stereo not given) | -4.4% | -6% | 4% | -2% | 5% | 27% | 7% | -1% |
| CCS(=O)(=O)c1nc(S(=O)(=O)c2ccc(C)cc2)c(N2CCCC(C)C2)s1 (stereo not given) | . | -2% | . | . | . | -6% | -5% | 10% |

Part of the list above, as labelled records:
Nn1cnnc1SCC(=O)N(C1CCCCC1)C1CCCCC1
  Cruzain inh Det = .
  SARS PLP yeast = 0%
  Cruzain noTriton = .
  MARV entry inh = ?
  LASV entry inh = 2%
  NS1 inh = 4%
  RE007 growth inh = 2%
  2A StopGo = 12%

COc1cc(S(=O)(=O)N2CCN(c3ccc(F)cc3)CC2)ccc1Cl
  Cruzain inh Det = -2.5%
  SARS PLP yeast = -6%
  Cruzain noTriton = -9%
  MARV entry inh = 0%&0%
  LASV entry inh = -23%
  NS1 inh = -51%
  RE007 growth inh = 7%
  2A StopGo = -24%

Next part
| Molecule | Cruzain inh Det | SARS PLP yeast | Cruzain noTriton | MARV entry inh | LASV entry inh | NS1 inh | RE007 growth inh | 2A StopGo |
| --- | --- | --- | --- | --- | --- | --- | --- | --- |
| CCc1nn2c(=O)cc(COC(=O)c3cccc(NC(=O)c4cccs4)c3)nc2s1 | 1.1% | . | -3% | . | 12%[46.1 µM] | . | . | 12% |
| CC(=O)c1ccc(NC(=O)c2cc(CC(C)C)on2)cc1 | 5.3% | 0% | -5% | 1% | . | -2% | -4% | 74%[activator] |
| O=C(O)c1cc(-c2ccc(Cl)cc2)n(-c2ccc(Cl)cc2)n1 | . | 3% | . | ? | -11%[46.1 µM] | . | 2% | 8% |
| C=CCNC(=O)CN1C2CCCC1CC(NC(=O)c1ccccc1C)C2 (stereo not given) | -4.1% | 10% | 4% | -2% | -10% | 4% | -1% | -1% |
| CCc1nn(CC(=O)Nc2ccc(C)cc2C)c(=O)c2cc3sccc3n12 | 0.1% | . | 7% | 7%[46.1 µM] | . | . | . | -5% |
| Cc1cccc(-n2ncc3c(NCc4ccccc4)ncnc32)c1 | -2.8% | -22% | -8% | . | . | -21% | 16% | 52%[activator] |
| COc1ccc(S(=O)(=O)N2CCOCC2)cc1C(C)C | -0.7% | 13% | 3% | -3% | -2% | -3% | -6% | 14% |
| CC(=O)c1cccc(NS(=O)(=O)c2c(C)noc2C)c1 | 5.2% | -5% | -6% | -28% | 2% | 1% | 22% | 31%[activator] |
| CCN(CC)S(=O)(=O)c1ccc(N/N=C/c2cccnc2)nc1 | . | -1% | . | . | . | 13% | -5% | 5% |
| Oc1ccc(/C=N/n2c(C3CCCCC3)n[nH]c2=S)c(O)c1 | . | 0% | . | . | . | 11% | 8% | -14% |
| O=C(Nc1ccncc1)c1ccc(Cl)c([N+](=O)[O-])c1 | . | 0% | . | . | . | -2% | -11% | -5% |
| CCn1cnc2sc(C(=O)Nc3ccc4c(c3)OCO4)c(C)c2c1=O | -5.0% | -7% | -6% | 15% | ? | 1% | -20% | 39%[activator] |
| CC1CCCCN1C(=O)CNCC1CCCO1 (stereo not given) | . | 1% | . | 4%[46.1 µM] | 3% | 4% | 0% | 17% |
| Cc1noc(NS(=O)(=O)c2ccc(NC(=O)C34CC5CC(C3)CC(n3cnc(Br)n3)(C5)C4)cc2)c1C | -3.2% | 3% | ? | ? | 9% | -48% | -7% | -10% |
| CCCOc1ccc(/C(O)=C2/C(=O)C(=O)N(CCCn3ccnc3)C2c2ccco2)cc1 (stereo not given) | -2.3% | -1% | -3% | 4% | 26% | 10% | 1% | 10% |
| Cc1ccc(C)c(N/C=C(\C#N)c2nc3ccccc3o2)c1 | . | . | . | 16% | 14% | . | -5% | -3% |
| CC12CC(NC(=O)N1c1cccc(C(=O)NCc3ccc4c(c3)OCO4)c1)c1cc(Cl)ccc1O2 (stereo not given) | 1.6% | -7% | 4% | ? | ? | -41% | 10% | ? |
| Cc1nn(C)cc1/C=N/NC(=O)c1sc2ccccc2c1Cl | -9.1% | -16% | 13% | ? | -23% | ? | -6% | 3% |
| CN1CCN(CCCCOc2cccc3ccccc23)CC1 | . | 0% | . | ? | -4%[46.1 µM] | 3% | 16% | 3% |
| Cn1c(SCC(=O)N2CCN(Cc3ccccc3)CC2)nnc1-c1ccncc1 | -5.6% | 2% | -6% | -10% | 10% | 4% | -21% | -26% |
| COc1ccc(S(=O)(=O)N2CCC3(CC2)OCCO3)cc1 | . | 2% | . | -5%[46.1 µM] | -11%[46.1 µM] | . | 0% | -6% |
| CCOC(=O)c1ccc(Nc2nnc(C)c3ccccc23)cc1 | . | -2% | . | ? | ? | -40% | -13% | 8% |
| CCC1=[N+](CC(=O)c2ccc(C)cc2)CCn2cccc21 | . | -1% | . | -14%[46.1 µM] | 0% | 9% | -16% | 51%[activator] |
| CC1CCCCN1C(=O)Cn1c(=O)n(-c2ccc(Cl)cc2)c(=O)c2c3c(sc21)CCC3 (stereo not given) | -3.0% | . | -21% | ? | -17%[46.1 µM] | . | . | 1% |
| COc1cc(-c2noc(CCCC(=O)NC3CCCCC3)n2)cc(OC)c1OC | -2.6% | 28% | 21% | -14% | 0% | 6% | -6% | -4% |
| Cc1ccc2nc(C)c(C(=O)NN=C3CCN(C)CC3)n2c1 | . | -1% | . | -26%[46.1 µM] | -17% | 5% | -2% | 3% |
| COc1ccc(OC)c(C(=O)CSc2nnnn2C)c1 | 0.9% | 0% | 6% | 3% | -16% | -4% | 2% | 12% |
| CCn1cc(CNC(=O)CC2C(=O)NCCN2CC(c2ccccc2)c2ccccc2)cn1 (stereo not given) | . | 2% | . | 1% | -17% | 2% | 13% | -17% |
| CCCCn1c(SCC(=O)Nc2cc(C)on2)nc2ccsc2c1=O | 3.5% | -1% | -7% | -6% | -2% | 11% | 13% | -8% |
| CCCN(C(=O)COC(=O)c1[nH]c(C)c(C(=O)OC)c1C)c1c(N)n(Cc2ccccc2)c(=O)[nH]c1=O | . | 4% | . | -16%[46.1 µM] | -31% | . | 15% | 0% |
| O=C1c2ccsc2SCCN1Cc1cccc(F)c1 | . | 0% | . | ? | 3% | -6% | 17% | 10% |
| COCCCNC(=O)c1cc2c(=O)oc3ccc(C)cc3c2s1 | -0.1% | . | 8% | -4%[46.1 µM] | -14%[46.1 µM] | . | . | 4% |
| CCCSc1nc(N)c(C#N)c(-c2ccc(C)cc2)c1C#N | 1.0% | 6% | -12% | 11% | -20% | ? | 4% | -13% |

Entries of single compounds, quoted from the list. Order of values: Cruzain inh Det	SARS PLP yeast	Cruzain noTriton	MARV entry inh	LASV entry inh	NS1 inh	RE007 growth inh	2A StopGo
CCn1cc(CNC(=O)CC2C(=O)NCCN2CC(c2ccccc2)c2ccccc2)cn1 (stereo not given) is listed with .	2%	.	1%	-17%	2%	13%	-17%
CCCN(C(=O)COC(=O)c1[nH]c(C)c(C(=O)OC)c1C)c1c(N)n(Cc2ccccc2)c(=O)[nH]c1=O is listed with .	4%	.	-16%[46.1 µM]	-31%	.	15%	0%
Cc1nn(C)cc1/C=N/NC(=O)c1sc2ccccc2c1Cl is listed with -9.1%	-16%	13%	?	-23%	?	-6%	3%
CN1CCN(CCCCOc2cccc3ccccc23)CC1 is listed with .	0%	.	?	-4%[46.1 µM]	3%	16%	3%
CC12CC(NC(=O)N1c1cccc(C(=O)NCc3ccc4c(c3)OCO4)c1)c1cc(Cl)ccc1O2 (stereo not given) is listed with 1.6%	-7%	4%	?	?	-41%	10%	?
